Screens from PubChem.
LASV entry inh: blocks Lassa virus binding to or entry into cells; Lassa virus pseudotype entry inhibition, cell reporter; control for the full effect not named in the record; Potency, µM (titrated, usually from 37.9 µM), for the others: at the top dose activity change, negative = inhibition, actives largely listed as inhibitors; hit rate 1.2% among 300,000; AID 540256; active means well fitted inhibition curve with a large enough effect; inconclusive means small, poorly fitted or top-dose-only effect, or effect the other way; inactive means flat fitted curve, though single readings scatter; tested in HEK293 cells; note: % is set by controls: 0 for no effect and ±100 for the full control effect; nearly all actives have a fitted effect of over 50% in size; luciferase read-out
Cruzain inh noDet: cruzain (T. cruzi) inhibition without detergent. purified cruzain, Z-FR-AMC fluorescence, no detergent. Potency, µM, for the others: max response, negative = inhibition, usual class: inhibitors. hit rate 2.3% among 200,000; active = well fitted curve in the direction sought with a large enough effect; inconclusive = small, poorly fitted or top-dose-only effect, or another doubt; inactive = no such curve, though single readings can be large; an effect the other way counts as inactive or inconclusive;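 note: plate controls were enzyme without inhibitor for no effect and buffer without enzyme for full effect; nearly all actives have a fitted effect of over 40% in size; top concentration of the series not given in the record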
Target sequence (P25779 123-467 limits assumed): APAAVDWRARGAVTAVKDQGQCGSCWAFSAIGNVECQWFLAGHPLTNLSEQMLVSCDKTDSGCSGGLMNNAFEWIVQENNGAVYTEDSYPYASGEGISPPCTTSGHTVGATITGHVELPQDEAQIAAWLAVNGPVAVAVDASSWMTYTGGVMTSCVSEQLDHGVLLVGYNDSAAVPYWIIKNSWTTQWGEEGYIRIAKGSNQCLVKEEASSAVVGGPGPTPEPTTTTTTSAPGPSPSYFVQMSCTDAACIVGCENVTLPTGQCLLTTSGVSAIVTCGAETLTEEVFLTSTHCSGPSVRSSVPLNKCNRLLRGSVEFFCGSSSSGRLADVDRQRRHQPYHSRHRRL
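Purified cruzain at 1.5 nM, pre-incubated 15 min with compound at room temperature in 100 mM sodium acetate pH 5.5, 5 mM DTT, 0.00005% Triton X-100. Reaction started with 2 uM Z-FR-AMC; AMC fluorescence increase over 60 s gives rate.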
RE007 growth inh: less growth of the S. pombe RE007 Vpr strain; S. pombe RE007 Vpr strain, BacTiter-Glo ATP luminescence, 24 h; control for the full effect not named in the record; Potency, µM (doses to about 92.2 µM), without a hit: top-dose activity change, negative = less growth; hit rate 0.21% among 360,000; AID 651644; active = well fitted falling curve with a large enough effect; inconclusive = small, poorly fitted or top-dose-only effect; inactive = no such curve, though single readings can be large or run the other way;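 note: % is set by controls: 0 for no effect and ±100 for the full control effect; nearly all actives have a fitted effect of over 50% in size; the assay follows cell death caused by Vpr and the record does not say whether a fall means rescue or toxicity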
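Fission yeast RE007 carrying one integrated HIV-1 vpr copy, seeded at OD 0.01 in PMG+AL medium with 23 nL pinned compound. Grown 24 h at 30 degrees; viability read by BacTiter-Glo luminescence after 5 min.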
Marburg entry inh: Marburg virus entry inhibition | Potency, µM (highest dose often 37.8 µM), for the others: at the top dose activity change, negative = inhibition, usual class: inhibitors | AID 540276 | Marburg virus pseudotyped entry inhibition, cell reporter; control for the full effect not named in the record; about a third of the inactives were read at about 46 µM | hit rate 1.8% among 300,000; active = well fitted inhibition curve with a large enough effect; inconclusive = small, poorly fitted or top-dose-only effect, or effect the other way; inactive = flat fitted curve, though single readings scatter; tested in HEK293 cells; about a fifth of its hits are not listed in these tables; note: % is set by controls: 0 for no effect and ±100 for the full control effect; luciferase read-out
NS1 inh: blocks influenza NS1 protein function. AID 2326. Potency, µM (top dose mostly 46.1 µM), without a hit: at the highest dose activity, positive = more growth. S. cerevisiae slowed by influenza A NS1, growth recovery by OD600. hit rate 0.4% among 270,000; note: actives are rising curves; nearly all actives have a fitted effect of over 50% in size
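OD600 was taken as the measure of yeast growth restored by compound in an NS1-expressing S. cerevisiae strain. Cells had been washed out of glucose medium and diluted 1:100 into galactose -URA medium, pH 6.0.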
Cruzain inh Det: blocks cruzain activity in presence of Triton detergent; P25779; purified cruzain, Z-FR-AMC fluorescence, 0.01% Triton; Potency, µM, for the others: max response, negative = inhibition, usual class: inhibitors; hit rate 0.43% among 200,000; AID 1478; active = well fitted curve in the direction sought with a large enough effect; inconclusive = small, poorly fitted or top-dose-only effect, or another doubt; inactive = no such curve, though single readings can be large; an effect the other way counts as inactive or inconclusive;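 note: plate controls were neutral wells for no effect and buffer without enzyme for full effect; nearly all actives have a fitted effect of over 40% in size; top concentration of the series not given in the record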
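In this qHTS format, compounds are incubated with 1.5 nM cruzain for 15 min at room temperature before 2 uM Z-FR-AMC is added. Release of AMC is followed at 360/450 nm, and progress is taken as the 60 s fluorescence difference.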
SARS PLpro yeast: SARS-CoV PLP inhibition in yeast; hit rate 0.19% among 330,000; S. cerevisiae expressing SARS-CoV PLpro, growth rescue; control for the full effect not named in the record; Potency, µM (highest dose often 32.9 µM), for inactives: top-dose activity, positive = growth rescue; AID 485353; note: 0% is about no effect; nearly all actives have a fitted effect of over 55% in size; growth read by luminescence after 48 h
StopGo reporter: lowers the luciferase signal of an FMDV 2A StopGo reporter; Potency, µM (series often up to 57.9 µM), for the others: at the highest dose signal change, negative = less light; human cells with a luciferase reporter of 2A StopGo recoding; control for the full effect not named in the record; hit rate 1.2% among 410,000; active = well fitted falling curve with a large enough effect; inconclusive = small, poorly fitted or top-dose-only effect; inactive = no such curve, though single readings can be large or run the other way; tested in HEK293T cells; note: % is set by controls: 0 for no effect and ±100 for the full control effect; nearly all actives have a fitted effect of over 45% in size; luciferase light after 4 h
* = called active by the depositor; ? = inconclusive; . = not tested or not shown; & = joins results of further samples; [ ] = dose if it differs, or a comment. Unless noted, calls come from the whole dose curve; as a rule, active means well fitted rising curve with a large enough effect; inconclusive means small, poorly fitted or top-dose-only effect; inactive means no such curve, though single readings can be large or run the other way. Potency is the fitted concentration of half-maximal effect.

Fields – Marburg entry inh, Cruzain inh noDet, StopGo reporter, LASV entry inh, SARS PLpro yeast, RE007 growth inh, NS1 inh, Cruzain inh Det
COc1ccccc1C1NC(=O)NC(C)=C1C(=O)OC1CCCC(C)C1 (configuration not stated)
→ ., ., 0%, ., -5%, -3%, ?, .
COc1ccc(-c2noc(CCCC(=O)Nc3cccnc3)n2)cc1OC
→ ?, ., -26%, -25%[46.1 µM], 1%, 3%, -1%, .
CC1CCCN(CCCNC(=O)C2CC(=O)N(c3ccc(F)c(Cl)c3)C2)C1 (configuration not stated)
→ 4%, -2%, -3%, 6%, -1%, -15%, -3%, 1.4%
Cc1cc(C)n(-c2nc(C)nc(NCc3ccccc3)n2)n1
→ -14%[46.1 µM], -4%, -13%, 2%, 5%, 7%, -43%, 4.1%
CC(C)c1nc2oc3c(NCc4cccnc4)ncnc3c2c2c1CCC2
→ -14%, -7%, 10%, ?, 2%, 15%, 10%, -0.4%
C/C(=N/NC(=O)c1ccc(O)cc1)c1cccc([N+](=O)[O-])c1
→ 11%, 14%, 0%, 9%, 2%, -2%, 28%, -2.4%
CC(=O)NC(Cc1ccc(N(CCCl)CCCl)cc1)C(=O)NC(C(=O)O)C(C)C (configuration not stated)
→ 6%[46.1 µM], ., -15%, -14%, -2%, 4%, 1%, .
C=CCNC(=O)COc1cc(C)cc(C)c1C
→ 0%[46.1 µM], ., -8%, -5%[46.1 µM], 0%, 7%, 3%, .
COC(=O)C1(C)NC(c2ccc(O)cc2)C2C(=O)N(c3ccc4c(c3)OCCO4)C(=O)C21 (configuration not stated)
→ 5%, 0%, -19%, -3%, -2%, 6%, -7%, 3.4%
COC(=O)C1C(=O)CC(C)(O)C(C(=O)OC)C1c1ccccc1F (configuration not stated)
→ -11%[46.1 µM], -11%, 0%, ?, 1%, 22%, 9%, 0.9%
Nc1nc(Nc2ccccc2)nc2c1ncn2[C@@H]1O[C@H](CO)[C@H](O)[C@H]1O
→ ?, 3%, ., ., ., ., -3%, -2.8%
CC(C)c1nnc(NC(=O)CCC(=O)N2CCN(C3c4ccccc4-c4ccccc43)CC2)s1
→ -2%, ?, -29%, -6%, -13%, 3%, 3%, -10%
CCOc1ccccc1CN(CCc1ccc2c(c1)OCO2)Cc1cccc(OC)c1OC
→ ?, -6%, ?, -28%[46.1 µM], ., ., ., -2.1%
Cc1ccc(S(=O)(=O)Cn2nnnc2CN2CCN(Cc3ccc4c(c3)OCO4)CC2)cc1
→ 1%, 1%, -24%, ?, 5%, 0%, -58%, 5.6%
O=C(NNS(=O)(=O)c1ccc(F)cc1)c1cc2ccccc2cc1O
→ -30%, ., -7%, 5%, -2%, -12%, 2%, .
COc1ccc(C2=CC(c3ccco3)n3ncnc3N2)cc1 (configuration not stated)
→ 0%[46.1 µM], ., -10%, -8%[46.1 µM], -11%, -17%, 2%, .
Cc1c(/C=N/O)c2ccccn2c1C(=O)c1ccc(F)cc1
→ ?, ., ?, ?, 2%, 9%, -9%, .
Cc1ccc(NS(=O)(=O)c2cccc(C(=O)NCCCn3ccnc3)c2)cc1
→ -19%, ., 20%, -5%, 2%, -6%, ., .
COc1ccccc1OCC(=O)Nc1c2c(nn1-c1ccccc1)CS(=O)(=O)C2
→ -26%[46.1 µM], ., 17%, -15%[46.1 µM], 8%, -8%, 6%, .
O=C(NC12CC3CC(CC(C3)C1)C2)N1CCC(O)(c2ccc3c(c2)OCO3)CC1
→ 19%, 0%, 10%, -3%, -9%, -3%, -4%, 1.5%
c1ccc(CCc2nc(-c3ccccn3)no2)cc1
→ 19%, 5%, ., -15%, -9%, 1%, ?, -0.1%
O=C1c2cccnc2C(Nc2ccc(Cl)cc2)N1Cc1cccs1 (configuration not stated)
→ ?, ., -15%, -18%, 2%, -4%, ., .
O=C(NCCc1csc(-c2cccc(F)c2)n1)C(=O)Nc1cc(F)ccc1F
→ ., 4%, -7%, 10%[46.1 µM], ., ., ., -0.4%
Cc1ccc2cccc(NC(=O)c3cccc4c(Br)cccc34)c2n1
→ ?, -13%, -22%, 3%[46.1 µM], ., ., ., 4.3%
O=c1c2nccnc2[nH]c(=S)n1Cc1ccccc1
→ 0%[46.1 µM], ., 28%, 29%[46.1 µM], -3%, 17%, ., .
O=C(Cn1c(-c2ccccc2)noc1=O)NCc1ccccc1
→ 19%, -4%, 15%, -1%, 8%, 5%, -7%, 5.7%
COc1nccnc1NS(=O)(=O)c1ccc(NS(=O)(=O)c2ccc(NC(C)=O)cc2)cc1
→ 23%[46.1 µM], -15%, -26%, -2%, 9%, -4%, 4%, 0.4%
CCOc1ccccc1CNS(=O)(=O)c1cc(-c2cc(C)no2)ccc1C
→ ., ., 24%, ., -1%, 14%, -35%, .
Cc1cc(C)c(/C=C(\C#N)S(=O)(=O)c2ccccc2)[nH]1
→ ?, ., 2%, 3%, 0%, 5%, -6%, .
COC(=O)c1ccc(NC(=O)Nc2nnc(N(C)C3CCCCC3)s2)cc1
→ 10%[46.1 µM], ?, -9%, 12%[46.1 µM], ., ., ., -3.0%
O=C(NCCSc1ncc(-c2ccc(F)cc2)[nH]1)c1ccco1
→ 7%, ., 6%, 1%, 6%, -24%, ., .
O=C(Cn1nc(C(F)(F)F)c2c1CCCC2)Nc1ccc(Cl)cc1
→ ?, 0%, -29%, 2%[46.1 µM], ., ., ., -11%
N#C/C(=C/c1cc(Cl)c(O)c(Cl)c1)C(=O)N1CCCCC1
→ 0%, ., -10%, 10%, 3%, 34%, -20%, .
NNC(=O)c1ccncc1
→ 20%&20%&20%&20%&20%&20%&20%&20%, 2%&1%&0%&5%, -15%&49%&30%, -11%, 4%, 10%[18.4 µM], 0%, 6.2%&0.1%&-2.1%&0.1%
CC(C)(C)C(=O)NC(CC(=O)O)c1ccccc1 (configuration not stated)
→ -1%[46.1 µM], ., -2%, -1%[46.1 µM], -1%, 10%, ., .
Cc1ccc(S(=O)(=O)Nc2cc(C)c(O)c(Sc3n[nH]c(C)n3)c2)cc1
→ ?, ., 53%[activator], ., 1%, 2%, 16%, .
CCCC(=O)Nc1cc(-c2nc3ncccc3o2)ccc1Cl
→ 18%[46.1 µM], ., -11%, 1%[46.1 µM], 5%, 4%, ?, .
O=C(CCl)NNC(=O)c1c(O)c2ccccc2[nH]c1=O
→ -5%[46.1 µM], ., ?, 4%, 0%, -1%, -11%, .
O=C(Nc1ccc2c(c1)OCO2)c1ccc(NC2CC2)c([N+](=O)[O-])c1
→ -24%, -28%, 18%, ?, -18%, -22%, 18%, 0.5%
CC(=O)Cc1nsc(Nc2ccc(Cl)cc2)n1
→ ?, ., 41%[activator], -19%, -1%, 6%, 4%, .
NS(=O)(=O)c1ccc(N/N=C/C=C/c2ccccc2[N+](=O)[O-])cc1
→ -7%, ., 33%[activator], ?, -3%, 47%, 1%, .
CC(C)CCNC(=O)c1onc(CSc2nc3ccccc3[nH]2)c1C(=O)NCCC(C)C
→ ., ., -2%, ., 0%, -4%, 20%, .
Cc1cc2cc(CCNS(=O)(=O)c3ccc(F)cc3)c(=O)[nH]c2cc1C
→ ?, ., -10%, -13%[46.1 µM], -4%, -4%, 8%, .
C=CCNC(=S)NNC(=O)COc1ccc2cc(Br)ccc2c1
→ 25%[46.1 µM], ., 51%[activator], 18%, -4%, 3%, 7%, .
CC1CC(=O)C=C(O)C1C(=O)OC(C)(C)C (configuration not stated)
→ ?, 11%, 0%, 3%, 3%, -3%, 26%, 9.0%
Cc1c(C(=O)OCC2CCCCC2)[nH]c2c1C(=O)CC(c1ccc(Cl)cc1)C2 (configuration not stated)
→ -30%[46.1 µM], -3%, -22%, 15%[46.1 µM], ., ., ., -0.7%
CCOC(=O)N1CCC(NC(=O)c2cc3c(-c4ccc(OC)c(OC)c4)nn(C)c3s2)CC1
→ -22%, ?, ?, ?, -8%, 15%, -35%, -18%
CC(=O)N(C)c1ccc(NC(=O)CCN2C(=O)c3ccccc3C2=O)cc1
→ ., ., -6%, ., 3%, 9%, 12%, .
Cc1ccc(F)cc1NC(=O)CCc1c(C)nn(-c2ccc(N3CCCCC3)nn2)c1C
→ ., -1%, 10%&-1%, -5%[46.1 µM], -1%, 0%, -15%, -3.6%
COc1cc2c(cc1OC)C(COc1ccc3c(C)cc(=O)oc3c1)N(C(=O)CC(C)C)CC2 (configuration not stated)
→ 16%[46.1 µM], -7%, 0%, -24%[46.1 µM], ., ., ., 7.6%
Cc1ccccc1N(CC(=O)NC1CCCC1)C(=O)c1csnn1
→ 1%[46.1 µM], ., -4%, 20%, 0%, -2%, -1%, .
CC1(C)Cc2c(cnn2-c2ccccc2)-c2c1c1ccccc1n2CC(O)CBr (configuration not stated)
→ -22%, -29%, ?, ?, -20%, 14%, 25%, -7.9%
COCCn1c(=NC(=O)c2cccs2)sc2cc(NC(C)=O)ccc21
→ -13%, 7%, -23%, -2%, -10%, 78%, 11%, 1.1%
COCCNC(=S)N/N=C/c1c2ccccc2cc2ccccc12
→ ?, ., -17%, -16%, -1%, -20%, -4%, .
Cn1c(=O)c2c(n3c4ccccc4nc13)NC(=O)CC2c1cccc(Cl)c1 (configuration not stated)
→ ., -9%, -24%, 2%[46.1 µM], ., ., ., -1.3%
CCc1ccc(-n2nc(CO)c(C(=O)NCCc3ccccc3)n2)cc1
→ 1%[46.1 µM], -2%, 0%, 0%[46.1 µM], ., ., ., 0.5%
CC1(C)Cc2ccccc2C(=NC(Cc2c[nH]c3ccccc23)C(=O)O)N1 (configuration not stated)
→ ., ., -13%, ., 5%, 1%, 2%, .
CCOC(=O)c1ccc(NC2Nc3cc(C)nn3S2)cc1 (configuration not stated)
→ ?, ., 12%, ?, -1%, 10%, ., .
Cc1cc(=O)n(Cc2ccccc2)c2c1c(C)nn2-c1ccccc1
→ ., -14%, -23%, -11%[46.1 µM], ., ., ., -1.5%
O=C(NCc1ccccc1)c1cnc2sc(N3CCCC3)nn2c1=O
→ ., 5%, -6%, -2%[46.1 µM], ., ., ., -2.1%
CC(C)CCNC(=O)NC(=O)COC(=O)C1=COCCO1
→ 6%, -7%, -9%, 8%, -7%, 14%, -4%, 4.0%
